Compound activity deposited in PubChem by National Center for Advancing Translational Sciences (NCATS).
2A Renilla: lowers the Renilla signal of an FMDV 2A StopGo reporter | HEK cells with a luciferase reporter of 2A StopGo recoding | Potency, µM (top dose mostly 57.5 µM), for the others: at the highest dose signal change, negative = less light | hit rate 0.32% among 120,000; active means well fitted falling curve with a large enough effect; inconclusive means small, poorly fitted or top-dose-only effect; inactive means no such curve, though single readings can be large or run the other way; note: nearly all actives have a fitted effect of over 55% in size; overnight with compound
StopGo FLuc: FMDV 2A StopGo reporter, firefly signal. HEK cells with a luciferase reporter of 2A StopGo recoding. Potency, µM (highest dose often 57.5 µM), inactives show top-dose signal change, negative = less light. hit rate 0.23% among 120,000. AID 1745856; active = well fitted falling curve with a large enough effect; inconclusive = small, poorly fitted or top-dose-only effect; inactive = no such curve, though single readings can be large or run the other way; note: nearly all actives have a fitted effect of over 60% in size; overnight with compound
* hit, by the source's call; ? = inconclusive; [ ] = remark or other dose. % is set by controls: 0 for no effect and ±100 for the full control effect; potency is the fitted concentration of half-maximal effect. Not all compounds are listed, so the mix of outcomes need not match the whole.

The opening 15 records as a preview:
# | structure | 2A Renilla | StopGo FLuc
1 | Fc1c(F)c(C(F)(F)F)c(F)c(F)c1Sc1cccc2cccnc12 | -1% | 6%
2 | Cn1ccnc1C(NC(=O)Cc1n[nH]c(=O)c2ccccc12)c1ccccc1 (stereo not given) | -3% | 7%
3 | O=c1cc(CN2CCN(S(=O)(=O)c3ccc(Cl)cc3)CC2)nc2sc(-c3ccccc3F)nn12 | -12% | -5%
4 | CN(CC(=O)Nc1ccc(F)cc1)C(=O)c1cccc(S(=O)(=O)NCC2CCCO2)c1 (stereo not given) | 61%[activator] | -6%
5 | COc1ccc(C2OCC3(COC(C)=O)C(C)C=C(C)C2C3C)cc1 (stereo not given) | 10% | 17%
6 | CC(=O)Nc1ccc(NC(=O)C(C)OC(=O)c2cccc3c(=O)c(C)c(-c4ccccc4)oc23)cc1 (stereo not given) | 61%[activator] | 34%[activator]
7 | Cc1ccc2sc(N3CCN(C(=O)CCS(=O)(=O)c4ccc(F)cc4)CC3)nc2c1C | -22% | -7%
8 | CCN(CC)c1ccc(CN(C(=O)c2cc(=O)c3ccccc3o2)C2CCS(=O)(=O)C2)cc1 (stereo not given) | 14% | 9%
9 | CCOC(=O)C1CCCN(c2nc3c(S(=O)(=O)c4ccc(CC)cc4)nnn3c3ccsc23)C1 (stereo not given) | 14% | -18%
10 | COC(=O)C1C2CCC(C2)C1C(=O)OCC(=O)c1ccc(-c2ccccc2)cc1 (stereo not given) | ? | ?
11 | Cc1ccc(/C=C/C(=O)c2ccccc2)o1 | 33%[activator] | 23%
12 | N#Cc1cccc(C(=O)NCCSC(F)(F)F)c1 | -16% | 12%
13 | O=C(CCc1nc2ccccc2s1)NC1CC1 | -9% | 0%
14 | CCCC(C)NC(=O)c1cccc(C#N)c1 (stereo not given) | 10% | ?
15 | CCCCN(CC)CCNC(=O)c1cc2c(-c3ccc(Cl)cc3)nn(C)c2s1 | 5% | 18%

All compounds of this part, from the first entry:
# | structure | 2A Renilla | StopGo FLuc
1 | Fc1c(F)c(C(F)(F)F)c(F)c(F)c1Sc1cccc2cccnc12 | -1% | 6%
2 | Cn1ccnc1C(NC(=O)Cc1n[nH]c(=O)c2ccccc12)c1ccccc1 (stereo not given) | -3% | 7%
3 | O=c1cc(CN2CCN(S(=O)(=O)c3ccc(Cl)cc3)CC2)nc2sc(-c3ccccc3F)nn12 | -12% | -5%
4 | CN(CC(=O)Nc1ccc(F)cc1)C(=O)c1cccc(S(=O)(=O)NCC2CCCO2)c1 (stereo not given) | 61%[activator] | -6%
5 | COc1ccc(C2OCC3(COC(C)=O)C(C)C=C(C)C2C3C)cc1 (stereo not given) | 10% | 17%
6 | CC(=O)Nc1ccc(NC(=O)C(C)OC(=O)c2cccc3c(=O)c(C)c(-c4ccccc4)oc23)cc1 (stereo not given) | 61%[activator] | 34%[activator]
7 | Cc1ccc2sc(N3CCN(C(=O)CCS(=O)(=O)c4ccc(F)cc4)CC3)nc2c1C | -22% | -7%
8 | CCN(CC)c1ccc(CN(C(=O)c2cc(=O)c3ccccc3o2)C2CCS(=O)(=O)C2)cc1 (stereo not given) | 14% | 9%
9 | CCOC(=O)C1CCCN(c2nc3c(S(=O)(=O)c4ccc(CC)cc4)nnn3c3ccsc23)C1 (stereo not given) | 14% | -18%
10 | COC(=O)C1C2CCC(C2)C1C(=O)OCC(=O)c1ccc(-c2ccccc2)cc1 (stereo not given) | ? | ?
11 | Cc1ccc(/C=C/C(=O)c2ccccc2)o1 | 33%[activator] | 23%
12 | N#Cc1cccc(C(=O)NCCSC(F)(F)F)c1 | -16% | 12%
13 | O=C(CCc1nc2ccccc2s1)NC1CC1 | -9% | 0%
14 | CCCC(C)NC(=O)c1cccc(C#N)c1 (stereo not given) | 10% | ?
15 | CCCCN(CC)CCNC(=O)c1cc2c(-c3ccc(Cl)cc3)nn(C)c2s1 | 5% | 18%
16 | COc1ccc(-c2nc(C)c(C(=O)N3CCN(C(C#N)c4ccc(F)cc4)CC3)s2)cc1 (stereo not given) | 5% | 25%
17 | COc1ccccc1NC(=O)CC1C(=O)Nc2ccccc2N1C(=O)c1ccc(C)cc1 (stereo not given) | 12% | 3%
18 | Cc1ccc(SCCC(=O)OC(C)C(=O)Nc2ccc(C(N)=O)cc2)cc1 (stereo not given) | -5% | 9%
19 | O=c1c2c(n3cnnc3n1-c1ccccc1)-c1ccccc1CC21CCCCC1 | -7% | -4%
20 | O=C(CCSc1nc(-c2ccco2)cc(C(F)(F)F)n1)Nc1cccc(O)c1 | -24% | -11%
21 | CCOc1ccc2nc(Nc3ncc4c(n3)CCCC4=O)nc(C)c2c1 | -7% | -7%
22 | Cc1nc2c(cnn2C(C)C)cc1C(=O)N(C)Cc1ccc(F)cc1 | 8% | 0%
23 | COc1ccc(-n2c(-c3ccccc3F)nc3c(cnn3-c3ccc(C)cc3)c2=O)cc1 | -11% | 0%
24 | COc1ccccc1-c1nnc2sc(-c3cnccn3)nn12 | 7% | 5%
25 | CCN(C(=O)CSc1nc2ccccc2c2nc(CCn3c(C)nc4ccccc43)nn12)c1cccc(C)c1 | -13% | -29%
26 | C/C(=N/NC(=S)Nc1ccc(SC(F)F)cc1)c1cccc(C(F)(F)F)c1 | 13% | 0%
27 | CCOc1ccc(C2N3CC4(C(C)C)CN2CC(C(C)C)(C3)C4=O)cc1OC (stereo not given) | -7% | -18%
28 | Cc1ccc(C)c(N2CCN(C(=O)c3cn(CC(C)C)c(=O)c4c3c3ccccc3n4C)CC2)c1 | -4% | -19%
29 | O=C(Cc1ccc(NC(=O)N2CCCCc3ccccc32)cc1)Nc1ccccc1Br | 3% | -5%
30 | OC1CCN(c2cc(C(F)(F)F)nc3ccccc23)CC1 | -1% | -14%
31 | COc1cccc(CNC(C)c2ccccc2)c1 (stereo not given) | 3% | 8%
32 | COc1ccc(OCCCCn2c(-c3ccc(Cl)cc3)nc3ccccc3c2=O)cc1 | -6% | -6%
33 | COc1ccc(NC(=O)c2sc3nc4c(c(-c5ccc(OC)cc5)c3c2N)C(=O)CC(C)(C)C4)cc1 | 2% | 28%
34 | CC1CCCC(C(=O)O)N1 (stereo not given) | -3% | -5%
35 | Cc1ccc2cc(-c3ccccc3)[nH]c2c1 | 13% | 255%[activator]
36 | COc1ccc2oc(-c3ccc(C)c(NC(=O)c4sc5ccccc5c4Cl)c3)nc2c1 | -16% | -6%
37 | CC1=C(C(=O)Nc2ccccc2)C(C(C)C)n2nc(SCc3ccccc3C)nc2N1 (stereo not given) | 2% | -13%
38 | Cc1ccc(CC(=O)NCc2ccnc(Oc3ccccc3)c2)cc1 | 4% | 15%
39 | COc1ccc(OC)c(NC(=O)Cn2ccc3ccc(Cl)cc32)c1 | 38%[activator] | 16%
40 | COc1ccc(C2NC3=NCN(Cc4cccnc4)CN3c3nc4ccccc4n32)cc1OC (stereo not given) | 3% | 3%
41 | CCc1cccc(NC(=O)C(Cc2ccccc2)NS(=O)(=O)c2ccc3c(c2)oc(=O)n3C)c1 (stereo not given) | 0% | -6%
42 | CCCN(CC(F)(F)F)C(=O)c1ccc(NC(=O)NC(C)C)cc1 | -1% | 7%
43 | CC(C)C(=O)Nc1nc2ccc(CCC(=O)N3CCN(c4ccc(Cl)cc4)CC3)cc2s1 | -29% | ?
44 | CCOc1cc(S(=O)(=O)NC2CC(C)(C)NC(C)(C)C2)c(OCC)cc1C | 223%[activator] | -5%
45 | Cc1cccc(N(C)C(=O)Cc2nn(C)c(=O)c3ccccc23)c1C | ? | ?
46 | CCCNC(=O)NC(=O)COC(=O)c1sccc1C | -7% | 12%
47 | Cc1ccc(-c2nnc(CCC(=O)Nc3cccc(S(=O)(=O)NC4CC4)c3)o2)cc1 | 35%[activator] | 13%
48 | CCc1cc(=O)oc2c(C)c(OC(C)C(=O)NC3CC(C)(C)NC(C)(C)C3)ccc12 (stereo not given) | -14% | -13%
49 | O=C(NCc1ccccc1)NC(c1ccccc1)c1cccs1 (stereo not given) | 16% | 37%[activator]
50 | COc1ccc(CNC(=O)COC(=O)CCSC)cc1 | -1% | 6%
51 | CCOc1ccc(CCNC(=O)CCc2c(C)nn(C)c2C)cc1OCC | -2% | 8%
52 | CCOC(=O)c1c(C)[nH]c(NC(=O)Nc2cccc(C)c2)c1C | -6% | 39%[activator]
53 | Cc1cccc(C)c1NC(=O)CCl | -10%[1.06 µM] | -6%
54 | O=C(CCNC(=O)N1CC(=O)Nc2ccccc21)Nc1cccc(Cl)c1 | -12% | -8%
55 | COc1ccc(-c2nc(SCC(=O)Nc3ccc4c(c3)OCO4)c(-c3ccccc3)[nH]2)cc1 | 90%[activator] | 20%
56 | O=C(COC(=O)c1ccc2c(c1)NC(=O)CS2)Nc1cccc(Cl)c1 | 0% | -3%

Further compounds.
# | structure | 2A Renilla | StopGo FLuc
57 | N#Cc1c(F)cccc1NCCNc1cc(Cl)nc(N)n1 | ? | ?
58 | CCN(CC)C(=O)CN1C(=O)N(c2ccc(C)c(F)c2)S(=O)(=O)c2ccccc21 | 35%[activator] | 4%
59 | CC(=O)N1CCCC1c1nc2ccccc2n1Cc1cccc(C)c1 (stereo not given) | 2% | 4%
60 | CC(C)C(=O)/C(C#N)=C\c1ccc(C#N)cc1 | 0% | 22%
61 | O=C(COc1ccc(Cl)cc1)NCCc1csc(-c2cccnc2)n1 | 16% | 0%
62 | O=C(O)/C=C/c1cccc(Cl)c1Cl | 12% | 14%
63 | c1ccc(-c2ccc(Nc3ccc4ccccc4c3)cc2)cc1 | ? | 0%
64 | CCN1CCN(C(=O)COc2ccc3c(=O)c(-c4ccccc4)c(C)oc3c2)CC1 | -5% | 7%
65 | c1csc(-c2nc(CSc3nnc(C4CC4)n3C3CC3)co2)c1 | 8% | 134%[activator]
66 | Cc1cnc(C(=O)OCc2ccc(-c3ccccc3)cc2)cn1 | -8% | 21%
67 | CN(CC(=O)NC(=O)NC1CC1)Cc1cccc(C#N)c1 | -20% | 1%
68 | CCN1CCN(Cc2cc(=O)oc3ccc(O)cc23)CC1 | -1% | 16%
69 | COc1cc(NC(=O)CN2C(=O)CCc3cc(Br)ccc32)cc(OC)c1OC | -2% | 8%
70 | CCN(CC)CCCNC(=O)Cn1nc(C)n2c(cc3sccc32)c1=O | -12% | 2%
71 | Cc1cc(Nc2ccccc2)nc(NCc2ccccc2)n1 | ? | ?
72 | Cc1cccc(CNC(=O)c2cnc3sc(N4CCCCC4)nn3c2=O)c1 | -2% | -14%
73 | COc1ccc(C(=O)O)c(Br)c1 | -4% | -6%
74 | CC12CC3CC(C1)CC(NC(=O)c1ccc(Cl)cc1Cl)(C3)C2 | ? | 5%
75 | Cc1ccc(-n2ncc(C(=O)N3CCN(c4ccccn4)CC3)c2C2CCN(C(=O)OC(C)(C)C)CC2)cc1C | -13% | -21%
76 | O=C(Cn1c(=O)oc2cc(S(=O)(=O)N3CCOCC3)ccc21)c1ccc(F)cc1 | -9% | -15%
77 | CCCCN(C1CCS(=O)(=O)C1)S(=O)(=O)c1ccc(OC)c(OC)c1 (stereo not given) | 11% | -8%
78 | CC1=C(c2ccc(C)c(C)c2)S(=O)(=O)N(Cc2ccc(C(=O)NCCC(C)C)cc2)C1=O | -5% | -3%
79 | COc1cccc(-c2cc(-c3cccc(OC)c3)[nH]n2)c1 | -5% | 235%[activator]
80 | O=C(Nc1ccccc1)c1sc(NC2CCCCC2)nc1-c1ccc([N+](=O)[O-])cc1 | -2% | 0%
81 | C/C(=N\NC(=O)c1cccc(Br)c1)c1cccs1 | 30% | 206%[activator]
82 | COc1ccccc1C(=O)Nc1cccc(C(=O)OCc2cc(=O)n3c4c(sc3n2)CCCC4)c1 | -14% | -15%
83 | COc1ccccc1/C(C)=N/Nc1ccc(Cl)c(C(=O)O)c1 | 8% | 0%
84 | O=C(NCc1ccc(Cl)cc1)C1CCCN(C(=O)c2cnn(-c3ccc(F)cc3)c2-n2cccc2)C1 (stereo not given) | -26% | -42%
85 | CCCCCn1nc(C(=O)Nc2ccccc2OCC)c2ccccc2c1=O | -21% | -12%
86 | Cc1cccc(C(=O)NC(=O)Nc2ccc(-c3cc(C(F)(F)F)nn3-c3ccccc3)cc2)c1 | -5% | 5%
87 | COc1ccc(CNC(=O)c2cccn2-c2nnc(N3CCCC3)s2)c(OC)c1 | 31%[activator] | -7%
88 | CCc1ccc2c(COC(=O)c3ccc4c(c3)nnn4CC)cc(=O)oc2c1 | -11% | 3%
89 | CCOC(=O)N1CCN(S(=O)(=O)N2CCCC(C(=O)NCc3ccc(OC)cc3OC)C2)CC1 (stereo not given) | 10% | -15%
90 | Cc1ccc(NC(=O)c2cc(S(=O)(=O)N3CCCc4ccccc43)ccc2F)cc1F | ? | ?
91 | CCCOc1ccc(Oc2nc(NCC(C)C)nc(N3CCOCC3)n2)nn1 | 3% | -2%
92 | COC(=O)C1CN(Cc2ccc(F)cc2)CCS(=O)(=O)N1Cc1cn(CCOC(C)=O)nn1 (stereo not given) | 16% | 15%
93 | O=C(COC(=O)c1cc(=O)[nH]c2ccccc12)Nc1ccccc1C(=O)Nc1ccccc1 | 0% | 10%
94 | O=S(=O)(c1ccc2c(c1)OCCO2)c1nc(-c2ccccc2)oc1NCCN1CCOCC1 | 268%[activator] | 67%[activator]
95 | COCC(C)n1c(C)cc(C(=O)CSc2nnc(Nc3ccccc3F)s2)c1C (stereo not given) | -20% | -5%
96 | Cc1nn(CC(=O)NC2CC2)c(=O)c2cc3cc(F)ccc3n12 | -7% | -3%
97 | Nc1nccnc1C(=O)NCc1cccnc1 | -16%[1.06 µM] | -7%
98 | CCCCOc1ccccc1C(=O)N(Cc1sccc1C)C1CCS(=O)(=O)C1 (stereo not given) | 27% | 25%
99 | Cc1ccc2c(c1)-c1c(cnc3cc(-c4ccccc4)nn13)CO2 | -3% | 30%
100 | COCCCNC(=O)CCCN1C(=O)CCn2nc(-c3cccn3C)cc21 | -1% | -3%
